From PubChem
miR-21 reporter: miR-21 reporter, rising signal; HeLa miR-21 FLuc reporter, luciferase, 48 h; Potency, µM (highest dose often 38.3 µM), for inactives: top-dose reporter change, positive = more light; 340,000 tested, under 10 active; AID 2288; active = well fitted rising curve with a large enough effect; inconclusive = small, poorly fitted or top-dose-only effect; inactive = no such curve, though single readings can be large or run the other way;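 further: % of control where 0% means no effect; miR-21 action dims this reporter so a rising signal means less miR-21 action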
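Using DMEM plus 10% FBS, HeLa miR-21-FLuc cells are incubated with test compounds (final up to about 40uM) for 48 hours; firefly luciferase signal is then imaged following reagent-mediated lysis.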
Numbers without * were called inactive; ? = inconclusive. These rows are one share of the data, so the mix of outcomes need not match the whole.

| SMILES | miR-21 reporter |
| --- | --- |
| O=C(COc1ccccc1F)Nc1ccc2nc(SCCOc3ccccc3)sc2c1 | 2% |
| Cc1ccc(CSc2nc3ccsc3c(=O)n2CCC(C)C)cc1 | -3% |
| CCOc1ccc(CNC(=O)c2ccc3oc(=O)n(Cc4ccccc4)c3c2)cc1 | 8% |
| CCn1cc(C(=O)N2CCN(c3ccccc3F)CC2)c(=O)c2cc(S(=O)(=O)N(C)C)ccc21 | -2% |
| COC(=O)C1=C(C)N(C(C)C)C(=O)C1(NC(=O)c1ccccc1OC)C(F)(F)F (stereo not drawn) | -10% |
| CCOc1ccc(NC(=O)c2ccc(NC(=O)N3CCSc4ncccc43)cc2)cc1 | 15% |
| COC(=O)c1c(NC(=O)COc2ccc(OC)cc2)sc2c1CCC(C)C2 (stereo not drawn) | 0% |
| COc1ccc(S(=O)(=O)NCCc2nnc3ccc(SCC(=O)Nc4ccccc4C)nn23)cc1 | 6% |
| O=C(COc1ccc2oc3c(c2c1)CCCC3)Nc1cccc(Br)c1 | -6% |
| COc1ccc(CCNC(=O)Cn2c(=O)cc(C(F)(F)F)c3c(C)nn(C)c32)cc1OC | 2% |
| CC(=O)c1cc2c(cc1N/C(=N/S(=O)(=O)c1ccc(F)cc1)c1ccccc1)OCO2 | 7% |
| CC(=O)Nc1ccc(NC(=O)CCC(=O)c2ccc(C)cc2)cc1 | -4% |
| CC(C)c1cc(-c2nc(-c3ccc(Cl)cc3)no2)n[nH]1 | -31% |
| COc1ccc(S(=O)(=O)Oc2ccccc2C(=S)N2CCOCC2)cc1 | -4% |
| CCOC(=O)c1c(C)sc(-c2c(-c3ccccc3)[nH]c3[nH]c(=O)[nH]c(=O)c23)c1O | -11% |
| CCOc1ccc(CCNC(=O)CCc2cn(Cc3ccc(F)cc3)c3ccccc23)cc1 | 4% |
| COc1ccc(OC)c(S(=O)(=O)N2CCC(c3ccncc3)CC2)c1 | 10% |
| COc1ccccc1OCC(=O)Nc1cc(-c2ccc(C)cc2)no1 | -34% |
| COc1ccc(NC(=O)C2CCN(S(=O)(=O)c3ccc4c(c3)CCCC(=O)N4)CC2)c(OC)c1 | 8% |
| O=C(NCCc1ccc(Cl)cc1)c1ccc2c(c1)N(Cc1ccc(Cl)cc1)C(=O)CS2 | ? |
| CCCCSCCCNC(=O)c1cn(CC)c2ccc(S(=O)(=O)N(C)C3CCCCC3)cc2c1=O | 13% |
| CC(=O)Nc1cccc(NC(=O)CSc2ccc(-c3sc(-c4ccccc4)nc3C)nn2)c1 | 29% |
| Cc1ccc(NC(=O)Cn2c(=O)n(CCC(=O)NCc3ccccc3Cl)c(=O)c3ccccc32)c(C)c1 | 6% |
| COc1ccc(-c2cc(C(=O)NCc3ccc(F)cc3)c3c(-c4ccc(F)cc4)[nH]nc3n2)cc1OC | -19% |
| O=C(O)c1cc(-c2cc(C(=O)O)c3ccccc3n2)nc2ccccc12 | 1% |
| O=C(COC(=O)c1cc(-c2cccs2)nc2ccccc12)c1ccc(Br)cc1 | -7% |
| Cc1c(NC(=O)Cc2ccc(F)cc2)cccc1-c1nc2cccnc2s1 | ? |
| CCOc1ccccc1NC(=O)Cn1ccn(-c2ccccc2)c(=O)c1=O | 14% |
| COc1ccc(OCC(=O)N2CCN(C(=O)c3cccc(OC)c3OC)CC2)cc1 | -4% |
| COc1ccc(-c2ccc3c(N)c(C(=O)NCc4ccc(Cl)cc4)sc3n2)cc1 | -3% |
| Cc1ccccc1-c1nc2c3c(-c4ccccc4)c(-c4ccccc4)oc3ncn2n1 | -3% |
| COc1cc(CN(C(=O)c2oc3ccccc3c2C)C2CCS(=O)(=O)C2)cc(OC)c1OC (stereo not drawn) | -1% |
| Cc1ccc(-n2ncc(C(=O)NCCCN3CCCCC3)c2C2CCN(C(=O)OC(C)(C)C)CC2)c(C)c1 | -7% |
| COc1ccccc1N1CCN(CC(O)COc2ccc(Cl)c(C)c2)CC1 (stereo not drawn) | -1% |
| CCOC(=O)c1c(NC(=O)c2noc3c2CC(C(C)(C)C)CC3)sc2c1CCCC2 (stereo not drawn) | 2% |
| CCCN(CCC)C(=O)Cn1c(=O)n(-c2cccc(OC)c2)c(=O)c2c3c(sc21)CCCC3 | 1% |
| O=C(CSc1cn(CCNC(=O)c2c(F)cccc2F)c2ccccc12)Nc1ccc2c(c1)OCCO2 | 8% |
| CCOc1ccc(C(=O)OCc2cc(=O)n3cc(C)sc3n2)cc1 | -5% |
| Cc1nn(-c2ccc(N3CCCC3)nn2)c(C)c1CCC(=O)Nc1ccc(F)cc1F | 2% |
| CC1=C(C(=O)OCc2ccccc2)C(c2cccc(Cl)c2Cl)CC(=O)N1 (stereo not drawn) | -13% |
| COc1ccc(-c2nc(CSCC(=O)N3CCN(c4ccccc4F)CC3)c(C)o2)cc1 | ? |
| CCOC(=O)C1=C(CS(=O)(=O)c2ccc(F)c(C)c2)NC(=O)NC1c1ccc(F)c(F)c1 (stereo not drawn) | 19% |
| CCCNC(=O)CN1C(=O)COc2ccc(S(=O)(=O)N3CCCC3)cc21 | -1% |
| CCOc1ccc(CCNC(=O)c2ccc(C)c(-n3cnc4cccnc43)c2)cc1 | 8% |
| COc1ccc(NC(=O)C2CCC(CNS(=O)(=O)c3cccc4nsnc34)CC2)cc1OC (stereo not drawn) | 6% |
| Cc1ccc2nc(Nc3ccc(C)c(F)c3)c3nncn3c2c1 | -14% |
| CC1Cc2cc(S(=O)(=O)CCC(=O)Nc3ccc(F)cc3)ccc2N1C(=O)C1CC1 (stereo not drawn) | -1% |
| CC(=O)c1cccc(S(=O)(=O)NCCc2csc3nc(-c4ccc(F)cc4)nn23)c1 | 15% |
| COc1ccc(S(=O)(=O)NCCc2sc(-c3ccccc3)nc2C)cc1F | -12% |
| Cc1nc2nc(SCC(=O)NCCc3ccc(Cl)cc3)nn2c(C)c1Cc1ccccc1 | 5% |

Not a retest: 18 of the compounds above.
| SMILES | miR-21 reporter |
| --- | --- |
| COc1cc(CN(C(=O)c2oc3ccccc3c2C)C2CCS(=O)(=O)C2)cc(OC)c1OC (stereo not drawn) | -1% |
| Cc1ccc(-n2ncc(C(=O)NCCCN3CCCCC3)c2C2CCN(C(=O)OC(C)(C)C)CC2)c(C)c1 | -7% |
| COc1ccccc1N1CCN(CC(O)COc2ccc(Cl)c(C)c2)CC1 (stereo not drawn) | -1% |
| CCOC(=O)c1c(NC(=O)c2noc3c2CC(C(C)(C)C)CC3)sc2c1CCCC2 (stereo not drawn) | 2% |
| CCCN(CCC)C(=O)Cn1c(=O)n(-c2cccc(OC)c2)c(=O)c2c3c(sc21)CCCC3 | 1% |
| O=C(CSc1cn(CCNC(=O)c2c(F)cccc2F)c2ccccc12)Nc1ccc2c(c1)OCCO2 | 8% |
| CCOc1ccc(C(=O)OCc2cc(=O)n3cc(C)sc3n2)cc1 | -5% |
| Cc1nn(-c2ccc(N3CCCC3)nn2)c(C)c1CCC(=O)Nc1ccc(F)cc1F | 2% |
| CC1=C(C(=O)OCc2ccccc2)C(c2cccc(Cl)c2Cl)CC(=O)N1 (stereo not drawn) | -13% |
| COc1ccc(-c2nc(CSCC(=O)N3CCN(c4ccccc4F)CC3)c(C)o2)cc1 | ? |
| CCOC(=O)C1=C(CS(=O)(=O)c2ccc(F)c(C)c2)NC(=O)NC1c1ccc(F)c(F)c1 (stereo not drawn) | 19% |
| CCCNC(=O)CN1C(=O)COc2ccc(S(=O)(=O)N3CCCC3)cc21 | -1% |
| CCOc1ccc(CCNC(=O)c2ccc(C)c(-n3cnc4cccnc43)c2)cc1 | 8% |
| COc1ccc(NC(=O)C2CCC(CNS(=O)(=O)c3cccc4nsnc34)CC2)cc1OC (stereo not drawn) | 6% |
| Cc1ccc2nc(Nc3ccc(C)c(F)c3)c3nncn3c2c1 | -14% |
| CC1Cc2cc(S(=O)(=O)CCC(=O)Nc3ccc(F)cc3)ccc2N1C(=O)C1CC1 (stereo not drawn) | -1% |
| CC(=O)c1cccc(S(=O)(=O)NCCc2csc3nc(-c4ccc(F)cc4)nn23)c1 | 15% |
| COc1ccc(S(=O)(=O)NCCc2sc(-c3ccccc3)nc2C)cc1F | -12% |

The listing continues:
compound	miR-21 reporter
C#CCOc1c(Br)cc(C2C(C(=O)OC)=C(C)NC3=C2C(=O)c2ccccc23)cc1OCC (stereo not drawn)	11%
Cc1cccc(C(=O)N2CCc3cc(CNC(=O)c4ccco4)ccc32)c1	9%
CCOC(=O)c1c(NC(=O)c2ccccc2Cl)sc2c1CCCC2	-7%
CCn1cc2nc(SCC(=O)Nc3ccc(OC)c(Cl)c3)n(Cc3ccc(OC)cc3)c(=O)c2n1	2%
COCCNC(=O)C1CCN(Cc2cc3ccccc3n2Cc2ccc(C)cc2)CC1	17%
c1ccc(CCCOCCC2CO2)cc1 (stereo not drawn)	-4%
CCOc1ccc(NC(=O)CCS(=O)(=O)c2cc3c4c(c2)CCN4C(=O)CC3)cc1	0%
COc1cccc(NC(=O)CSc2nc(O)c(C/C=C/c3ccccc3)c(=O)[nH]2)c1	-2%
Cc1ccc(-n2nnc(-c3nsc(NC(=O)c4ccccc4)n3)c2C)cc1	-76%
Cc1c(C(=O)N(C)C)sc2c1c(=O)n(-c1ccc(Cl)cc1)c(=O)n2CC(=O)C(C)(C)C	2%
COC(=O)c1cccnc1-n1c(=O)c2cccnc2n(CC(=O)Nc2c(C)cc(C)cc2C)c1=O	4%
CCN(c1ccccc1)S(=O)(=O)c1ccc(F)c(C(=O)Nc2ccc(C)cc2)c1	26%
Cc1ccc(-n2c(-c3ccco3)nc3c(cnn3-c3ccccc3Cl)c2=O)cc1	-4%
CC1CCN(S(=O)(=O)c2ccc3c(c2)N(CC(=O)O)C(=O)CO3)CC1	0%
O=C(O)Cc1sc(Nc2ccccc2)nc1-c1ccccc1	-39%
Cc1ccc(NC(=O)C2Cc3ccccc3N2C(=O)c2ccccc2)cc1Cl (stereo not drawn)	-5%
CCOc1cccc2sc(N3CCN(C(=O)C4CC4)CC3)nc12	-4%
Cc1ccc(-n2ncc3c(=O)n(Cc4cccc(Cl)c4)cnc32)cc1C	-2%
Cc1cccc(OCCSc2nc3ccc(NC(=O)COc4ccccc4)cc3s2)c1	-6%
COc1ccc(NC(=O)Nc2cccc(OCc3cc(=O)n4cccc(C)c4n3)c2)c(OC)c1	-1%
CC1CCCN(c2ncnc3c2cnn3-c2ccc(F)cc2)C1 (stereo not drawn)	28%
COc1ccc2nc3oc(C(=O)NCc4ccccc4OC)cc3cc2c1	-11%
CC(=O)N1CCc2c(sc3c2c(=O)n(CCc2ccccc2)c(=O)n3CC(=O)Nc2ccc(C)c(F)c2)C1	23%
O=C(Nc1ccc(OC(F)(F)F)cc1)C(NS(=O)(=O)c1cccc2nsnc12)c1ccccc1 (stereo not drawn)	11%
COc1cc(OC)c(NC(=O)N2CCOc3ccc(C)cc32)cc1Cl	0%
CCOc1ccc(NC(=O)Cn2nc(CC)n3c(cc4sccc43)c2=O)cc1	5%
CC(C)CC1Nc2ccc(C(=O)NCCCOC(C)C)cc2NC1=O (stereo not drawn)	-5%
CCOC(=O)c1cc(-c2ccc(C)cc2)n(CCC(=O)NCc2ccccc2)c1C	-2%
COc1ccc(Cl)cc1NC(=O)c1ccc(CN2C(=O)CCn3nc(C)cc32)cc1	-11%
COc1cccc(CNC(=O)C2CCCN(c3ncnc4onc(-c5ccc(F)cc5)c34)C2)c1 (stereo not drawn)	0%
Cc1ccc(C(=O)COC(=O)CCC(=O)Nc2ccc(Oc3ccccc3)cc2)cc1	-6%
Nc1ncc(S(=O)(=O)NCc2ccccc2F)cn1	-3%
CC1=C(C(=O)Nc2cccnc2)C(c2cccc(O)c2)n2nc(SCc3ccccc3)nc2N1 (stereo not drawn)	0%
COc1ccc(C(Nc2ccccn2)c2ccc3ccc(C)nc3c2O)cc1C (stereo not drawn)	-1%
CCOC(=O)c1c(C)oc2ccc(N(C(=O)c3ccncc3)S(=O)(=O)c3ccc(F)cc3)cc12	-8%
O=C(c1cnc(N2CCOCC2)c2ccccc12)N1CCN(c2ccccc2F)CC1	-1%
COc1ccc(CNc2nc(-c3ccc(OC)c(OC)c3)cc(C(F)(F)F)n2)cc1	7%
OCCN1CCN(C(c2ccc(Cl)cc2Cl)c2sc3nc(-c4ccco4)nn3c2O)CC1 (stereo not drawn)	-8%
Cc1ccc(CNc2ncnc3onc(C)c23)cc1	?
CCCCN(C)C(=O)Cn1ncc2c([nH]c3ccc(C)cc32)c1=O	10%
CCCCNc1nc(Oc2ccc(=O)n(C)n2)nc(N(C)C)n1	4%
COc1c(C)cc(NS(=O)(=O)c2ccc3c(c2)OCCO3)cc1C	27%
Cn1c(COc2ccccc2C(C)(C)C)nc2ccccc21	17%
COc1ccc(NC(=O)CCn2c(=O)c3cccn3c3cccnc32)cc1Cl	-3%
CCN(CC)c1ccc(NC(=O)C2CCN(S(=O)(=O)c3cnc[nH]3)CC2)c(C)c1	-1%
Cc1ccc(N2C(=O)C(CC(=O)Nc3ccccc3)N(CCC3=CCCCC3)C2=O)cc1 (stereo not drawn)	-6%
CCc1ccc(CN(Cc2ccco2)C(=O)c2ccc(C)cc2)cc1	4%
O=C(CC1N=C2c3ccccc3N=C(SCC(=O)Nc3ccccc3F)N2C1=O)NCc1ccc2c(c1)OCO2 (stereo not drawn)	-18%
Cc1ccc(NC(=O)c2ccc3[nH]c(C)cc(=O)c3c2)c(C)c1	-42%
CCC(Sc1nc2ccccc2c(=O)n1CCc1ccc(OC)c(OC)c1)C(=O)N(CC)CC (stereo not drawn)	?
CCOC(=O)C1CCCN(C(=O)c2ccccc2NC(=O)c2nsc3ccccc23)C1 (stereo not drawn)	-15%
COC(=O)c1ccc(Cl)cc1NC(=O)N1CC=C(c2c[nH]c3ccccc23)CC1	13%
Cc1cc(C)c2nc(N(Cc3cccnc3)C(=O)CCS(=O)(=O)c3ccccc3)sc2c1	8%
CC(C)CN(CC(C)C)CC(O)Cn1cc(/C=C/C(=O)c2ccccc2)c2ccccc21 (stereo not drawn)	-13%
COC(=O)c1scc(-c2ccc(C)cc2)c1S(=O)(=O)N1CCN(c2ccc(C(C)=O)cc2)CC1	12%
COc1ccc2nc(NC(=O)c3ccc(S(=O)(=O)N4CCC(C)CC4)cc3)sc2c1	-1%
